# miR-21 FLuc: miR-21 reporter, rising signal. HeLa miR-21 FLuc reporter, luciferase, 48 h. Potency, µM (doses to about 38.3 µM), for inactives: top-dose reporter change, positive = more light. 340,000 tested, under 10 active; active = well fitted rising curve with a large enough effect; inconclusive = small, poorly fitted or top-dose-only effect; inactive = no such curve, though single readings can be large or run the other way;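 further: % of control where 0% means no effect; miR-21 action dims this reporter so a rising signal means less miR-21 action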
#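 Using DMEM plus 10% FBS, HeLa miR-21-FLuc cells are incubated with test compounds (final up to about 40uM) for 48 hours; firefly luciferase signal is then imaged following reagent-mediated lysis.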
# Rango complex inh: prevents formation of the Rango-importin beta complex; Q14974; Rango CFP/YFP FRET sensor + importin beta, 45 min; 340,000 tested, 0.031% active; AID 540263; Potency, µM (doses to about 92.2 µM), for inactives: at the top dose inhibition of complex formation; active = rising FRET ratio curve, often small or poorly fitted; inconclusive = mostly compound fluorescence or quenching in the first reads; inactive = flat curves in all reads;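 further: potency means the concentration at half of the fitted maximal effect; 0% = DMSO wells and 100% = buffer wells lacking importin beta; nearly all actives have a fitted effect of over 15% in size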
#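 Inhibition scored from the CFP 486 nm/YFP 530 nm FRET ratio 45 min after adding 0.125 microM importin beta to 50 nM Rango biosensor preincubated 5 min with compound (room temperature, PBS with DTT, Tween-20, BSA). No-importin wells as positive control.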
# Rango dissoc inh: inhibitors of RanGTP-induced Rango-importin beta complex dissociation. Biochemical FRET Rango-importin beta, RanGTP-induced dissociation. O95149+P62826. 340,000 tested, 0.071% active. Potency, µM (titrated, usually from 46.1 µM), for the others: at the top dose activity change, negative = inhibition. AID 540253; active means falling FRET ratio curve, often poorly fitted, with flat reads before Ran was added; inconclusive means other falling curves, or compound fluorescence or quenching; inactive means flat or rising ratio curve;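 further: potency means the concentration at half of the fitted maximal effect; % of control where 0% means no effect; nearly all actives have a fitted effect of over 45% in size; -100% = wells without RanGTP and RCC1; the record marks most hits as doubtful in a second field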
#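 Quantitative HTS using a FRET biosensor: 0.1 uM Rango, 0.25 uM importin beta, 0.6 uM Ran, 2 mM GTP, 0.2 uM RCC1 final, PBS with DTT, Tween-20 and BSA. Post-read taken 45 min after Ran addition.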
# GLA inh pH 4.5: inhibitors of human alpha-galactosidase A at pH 4.5; 230,000 tested, under 10 active; P06280; purified enzyme, 4-MU-alpha-Gal fluorescence, pH 4.5; AID 1467; activity change, negative = inhibition, % at 105 µM; inconclusive = small, poorly fitted or top-dose-only inhibition, or a rising curve; inactive = flat fitted curve, though single readings scatter; no compound was filed as active;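 further: 0% = full activity with enzyme and -100% = basal without enzyme; dose as in the result columns while the protocol names 77 µM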
# Target sequence (P06280 whole entry, looked up): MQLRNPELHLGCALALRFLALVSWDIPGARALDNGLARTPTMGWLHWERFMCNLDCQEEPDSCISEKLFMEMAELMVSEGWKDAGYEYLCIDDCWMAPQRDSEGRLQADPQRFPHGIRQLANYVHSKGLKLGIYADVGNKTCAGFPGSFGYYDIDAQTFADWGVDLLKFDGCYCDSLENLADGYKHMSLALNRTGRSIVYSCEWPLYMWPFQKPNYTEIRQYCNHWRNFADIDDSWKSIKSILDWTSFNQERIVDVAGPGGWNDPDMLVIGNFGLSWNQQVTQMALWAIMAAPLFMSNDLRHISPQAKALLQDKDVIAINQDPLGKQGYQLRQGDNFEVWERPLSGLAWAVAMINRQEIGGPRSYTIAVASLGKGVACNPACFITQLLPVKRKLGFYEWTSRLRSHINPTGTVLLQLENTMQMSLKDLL
# * hit, by the source's call; ? = inconclusive; · = not tested or not shown; & = joins results of further samples; [ ] = another dose, or the depositor's remark. Some of the compounds tested (hit frequency here may not be typical).
miR-21 FLuc,Rango dissoc inh,GLA inh pH 4.5,Rango complex inh,SMILES
3%,15%,-3,-4.4%,CC(=O)Nc1ccc(S(=O)(=O)NNC(=O)COc2ccc(C(C)(C)C)cc2)cc1
-12%,9%,-16,-4.0%,COCCNC(=O)NC(=O)COC(=O)c1ccc2[nH]c3c(c2c1)CCCC3
-28%,13%,-6,-0.9%,CC1CCCN(C(=O)CSCC(=O)Nc2nc(-c3cccs3)cs2)C1 (stereo unspecified)
0%,6%,1,5.6%,O=C(NCc1ccc(F)cc1)C1CCCN(S(=O)(=O)c2cccc3nsnc23)C1 (stereo unspecified)
-3%,1%,-4,-0.1%,CC(C)(C)SCCNS(=O)(=O)c1ccc(C#N)cc1
·,-12%,·,-0.2%,CSc1nc(N)c2cn[nH]c2n1
-2%,1%,3,-0.1%,CCCCNC(=S)N(Cc1c(C)noc1C)c1ccccc1
-1%,3%,6,-1.0%,COC(=O)COC(=O)c1ccc(Oc2nc(OC)nc(N(C)C)n2)cc1
-1%,5%,·,0.6%,Cc1cc(C)cc(N(C(=O)c2ccccn2)C(C(=O)NC2CCCCC2)c2ccncc2)c1 (stereo unspecified)
-6%,1%,3,-2.0%,CCN(CC)C(=O)c1sc2[nH]c(=S)n(-c3ccccc3)c(=O)c2c1C
-13%,5%,·,-1.3%,Cc1ccc(NC(=O)NN2CCN(C)CC2)cc1C
·,13%,·,0.9%,COc1ccc([N+](=O)[O-])c(O)c1C(C)=O

# Further results:
miR-21 FLuc,Rango dissoc inh,GLA inh pH 4.5,Rango complex inh,SMILES
-28%,2%,·,0.2%,COc1ccc(OC)c(Nc2ncnc3sccc23)c1
-7%,0%,-5,-2.0%,COc1ccc(CN2C(=O)C(O)(CC(=O)c3c(C)n[nH]c3C)c3ccccc32)cc1OC (stereo unspecified)
0%&-11%,-7%,-1,-2.4%,Cc1cc(C(=O)Nc2c(C)cccc2C)n(-c2ccccc2)n1
0%,0%,2,?,C#CCOCCOCCOCCNc1nc(N2CCN(C(=O)[C@H](CCCCN)n3cc(C(N)[C@H](C)CC)nn3)CC2)nc(N2CCN(C(=O)[C@H](CCC(=O)O)n3cc(C(N)[C@H](C)CC)nn3)CC2)n1 (stereo partly specified)
0%,2%,-7,-4.2%,COc1ccc2c(C)c(Cc3ccccc3)c(=O)oc2c1OC
-26%,-23%,·,-1.1%,O=C(Nc1cccnc1)c1cc(-c2ccc(Cl)c(Cl)c2)on1
1%,5%,·,-1.6%,CCOc1ccc(C(CC(=O)O)NC(=O)COc2ccc3ccccc3c2)cc1OC (stereo unspecified)
-16%,-3%,21,4.4%,Cc1cccc(NC2=NC(=S)N(CC#N)C23CCCCC3)c1
·,-4%,·,0.2%,CC1C(C)N(C(=O)CCCl)c2ccccc2N1C(=O)CCCl (stereo unspecified)
-55%,-13%,1,-5.8%,COc1ccc(-c2nc(C#N)c(NCC3CCCO3)o2)cc1 (stereo unspecified)
0%,-3%,·,-3.2%,CNC(=O)N1CCC(C(=O)c2c(C)c(C)c(C)c(C)c2C)CC1
1%,10%,0,1.1%,C=CCCOc1ccccc1C(N)=O

# (continued)
miR-21 FLuc,Rango dissoc inh,GLA inh pH 4.5,Rango complex inh,SMILES
·,-22%,·,6.6%,NC(=O)C1(NC2CCCCC2)CCN(Cc2ccccc2)CC1
-16%,-29%,-10,-1.1%,Nc1ccc(OCc2ccco2)cc1
24%,8%,-1,-5.3%,CCOc1ccc(Cc2c(Cl)nc(SC)nc2N(C)C)cc1
10%,?,-6,?,CCN(CC)c1ccc2c(c1)OC(N)=C(C#N)C2c1cccnc1 (stereo unspecified)
0%,20%,6,-3.7%,COc1cc(-c2nc3n(n2)C(c2cccc(OC)c2OC)C2=C(CCCC2=O)N3)cc(OC)c1OC (stereo unspecified)
-13%,-17%,-14,?,CCOc1ccc(NC(=O)C2CSC(c3ccncc3)=N2)cc1 (stereo unspecified)
·,-22%,·,-0.2%,CC[C@@H](CC1CCCCC1)C(=O)N(Cc1ccccc1)c1ccccc1
3%,8%,4[21.1 µM],-0.4%,CC(C)c1onc(C(=O)NCc2ccccn2)c1[N+](=O)[O-]
-1%,1%,3,0.0%,COc1cc(C(=O)N(CCc2ccccc2)C2CC3CCC(C2)N3C)cc(OC)c1OC (stereo unspecified)
5%,1%,1,-1.2%,Cc1ccc(OCC(=O)Sc2ccc(C)cc2)cc1
?,-7%,-4,0.1%,O=C(Nc1ccc(C(O)(C(F)(F)F)C(F)(F)F)cc1)c1ccc(Cl)c([N+](=O)[O-])c1
·,-16%,·,-0.1%,Cc1nn(-c2ccccc2)c(C)c1NC(=O)COC(=O)c1ccc(S(=O)(=O)C(F)F)cc1

# (further entries)
miR-21 FLuc,Rango dissoc inh,GLA inh pH 4.5,Rango complex inh,SMILES
0%,0%,1,?,CCS(=O)(=O)N1CCC(NC(=O)c2cc(OC)cc(OC)c2)CC1
4%,12%,·,1.9%,O=C(Cc1ccccc1F)Nc1nc(-c2ccc(F)cc2)cs1
1%,20%,1,0.0%,CNS(=O)(=O)c1ccc(N2CCCC2=O)c([N+](=O)[O-])c1
0%,-8%,·,2.2%,CC(=O)c1cccc(N(CC(=O)NC2CCCCC2)C(=O)Cn2nnc(-c3ccccc3)n2)c1
-2%,-8%,7,3.9%,O=C(CCN1C(=O)C2C3C=CC(C4CC34)C2C1=O)Oc1ccc(Br)cc1 (stereo unspecified)
·,22%,·,1.7%,CC(C)NC(=O)Nc1ccc2c(c1)C(=O)N([C@@H](C)CO)C[C@@H](C)[C@@H](CN(C)S(=O)(=O)c1ccc(F)cc1)O2
-1%,-8%,-26,-1.8%,COC(=O)C1CCN(c2ccc(C(N)=O)cc2[N+](=O)[O-])CC1
1%,20%,-3,-4.9%,Cc1ccccc1NC(=O)CC1(c2ccc(N(C)C)cc2)C(=O)c2ccccc2C1=O
·,28%,·,0.2%,COc1ccc(C)cc1-n1nnnc1SCC(=O)NC1CCS(=O)(=O)C1 (stereo unspecified)
10%,-6%,·,3.2%,Cc1csc(NC(=O)c2c(-c3ccccc3)noc2C)n1
-3%,-7%,·,4.7%,O=C(CCN1C(=O)/C(=C\c2ccccc2Cl)SC1=S)Nc1cccnc1
-3%,-2%,-3,-4.4%,CC(CCCC(C)(C)O)NCCO (stereo unspecified)

# Complete entries from above. Order of values: miR-21 FLuc	Rango dissoc inh	GLA inh pH 4.5	Rango complex inh
# `O=C(CCN1C(=O)C2C3C=CC(C4CC34)C2C1=O)Oc1ccc(Br)cc1` (stereo unspecified) across the screens: -2%	-8%	7	3.9%
# `CC(CCCC(C)(C)O)NCCO` (stereo unspecified) across the screens: -3%	-2%	-3	-4.4%
# `CC(C)NC(=O)Nc1ccc2c(c1)C(=O)N([C@@H](C)CO)C[C@@H](C)[C@@H](CN(C)S(=O)(=O)c1ccc(F)cc1)O2` across the screens: ·	22%	·	1.7%
# `COc1ccc(C)cc1-n1nnnc1SCC(=O)NC1CCS(=O)(=O)C1` (stereo unspecified) across the screens: ·	28%	·	0.2%
# `CC(=O)c1cccc(N(CC(=O)NC2CCCCC2)C(=O)Cn2nnc(-c3ccccc3)n2)c1` across the screens: 0%	-8%	·	2.2%

# (more compounds)
miR-21 FLuc,Rango dissoc inh,GLA inh pH 4.5,Rango complex inh,SMILES
2%,?,·,-6.6%,CCC(=O)Nc1nnc(S(=O)(=O)N2CCCc3ccccc32)s1
3%,8%,-3,-0.3%,Cc1nnc(NC(=O)c2nn(CC(C)C)c(=O)c3ccccc23)s1
-10%,12%,2,0.8%,O=C(NC(=S)NNC(=O)c1cnccn1)c1ccc(Cl)cc1
0%,-19%,·,0.3%,CCc1cccc(CC)c1NC(=O)CN1CCN(S(=O)(=O)c2ccccc2)CC1
1%,2%,7,-0.8%,CCC(=O)Nc1cc(C(=O)O)ccc1Sc1ccccc1
·,1%,·,0.1%,CNC[C@H]1Oc2ccc(NC(=O)Nc3ccccc3)cc2CC(=O)N([C@H](C)CO)C[C@H]1C
-6%,-12%,2,8.3%,S=c1[nH]nc(-c2cccnc2)n1/N=C/c1cccs1
-16%,2%,5,-2.1%,CC1=C(C(=O)OC(C)C)C(c2cccc([N+](=O)[O-])c2)n2c(cc(=O)[nH]c2=S)N1 (stereo unspecified)
-7%,6%,5,-1.6%,CCn1cnc2c1c(=O)n(CC(=O)Nc1ccc(C(N)=O)cc1)c(=O)n2Cc1ccccc1
-2%,16%,2,0.5%,O=C(N/N=C/c1cccc(O)c1)c1ccc(COc2cccc3cccnc23)cc1
-2%,19%,1,1.7%,CC(=O)Nc1ccccc1C(=O)C(=O)Nc1ccc(C(=O)NCC2CCCO2)cc1 (stereo unspecified)
-2%,18%,-5,1.5%,CCOC(=O)N1CCC(NC(=O)c2ccc(CS(=O)(=O)c3ccc(OC)cc3)o2)CC1

# Remaining list, next part:
miR-21 FLuc,Rango dissoc inh,GLA inh pH 4.5,Rango complex inh,SMILES
-12%,13%,3,3.5%,COCC1CCN(Cc2cn[nH]c2-c2cc3ccccc3o2)C1 (stereo unspecified)
-9%,-16%,7,?,CCc1[nH]c(=O)c(C#N)c2c1CSC(C)(C)C2
0%,-1%,·,-2.1%,COc1ccc(N2CCN(C(=O)CN(c3cccc(OC)c3)S(=O)(=O)c3ccccc3)CC2)cc1
-2%,16%,7,3.6%,O=C(CS(=O)(=O)c1ccccc1)NCc1ccco1
-38%,11%,-15,-4.6%,CCOC(=O)C1CCCN(C(=O)c2cc(-c3ccccc3)on2)C1 (stereo unspecified)
5%,-3%,·,2.7%,c1ccc(-c2onc(-c3ccco3)c2-c2ccc3[nH]ccc3c2)cc1
?,28%,8,-0.8%,CN(CCC#N)C(=O)COC(=O)c1ccccc1C(=O)c1ccc(Cl)c([N+](=O)[O-])c1
-2%,-9%,2,0.2%,CSCCC(NC(=O)c1cncc(Br)c1)C(=O)O (stereo unspecified)
·,4%,·,0.5%,Cc1cc(CNC(=O)C2(C(F)(F)F)CC(CCCO)CCCO2)nn1C (stereo unspecified)
0%,12%,1,-1.4%,COc1ccc(N2C(=O)CCC(C(=O)O)C2c2ccc(OC)c(OC)c2)cc1 (stereo unspecified)
-9%,0%,·,3.6%,O=C(NC(=O)N1CCCCCC1)c1ccccc1
-27%,-13%,5,-0.1%,CCOc1cc(/C=C(/C#N)c2ccc(F)cc2)ccc1OCc1ccc(C(=O)O)o1

# Three compounds drawn at random from those above, as already listed:
miR-21 FLuc,Rango dissoc inh,GLA inh pH 4.5,Rango complex inh,SMILES
-2%,-9%,2,0.2%,CSCCC(NC(=O)c1cncc(Br)c1)C(=O)O (stereo unspecified)
0%,12%,1,-1.4%,COc1ccc(N2C(=O)CCC(C(=O)O)C2c2ccc(OC)c(OC)c2)cc1 (stereo unspecified)
·,4%,·,0.5%,Cc1cc(CNC(=O)C2(C(F)(F)F)CC(CCCO)CCCO2)nn1C (stereo unspecified)

# Remaining list, next part:
miR-21 FLuc,Rango dissoc inh,GLA inh pH 4.5,Rango complex inh,SMILES
-4%,10%,9,1.2%,CCCn1c(SCC(=O)/C(C#N)=C(\C)N)n[nH]c1=O
2%,7%,3,-0.3%,CCCN(CCC)S(=O)(=O)c1ccc(N2CCCC2=O)c([N+](=O)[O-])c1
2%,-10%,2,0.2%,Cc1cc(C)cc(NC(=O)C2(c3ccccc3)CC2(Cl)Cl)c1 (stereo unspecified)
0%,0%,-24,1.0%,CCN(CC)CCNC(=S)Nc1ccc2nc3n(c(=O)c2c1)CCCCC3
3%,-6%,-5,0.7%,O=C(O)c1ccc(NC(CSCc2cccc(F)c2)C(=O)O)c([N+](=O)[O-])c1 (stereo unspecified)
-7%,0%,-4,3.6%,CC1CN(CN2C(=O)c3ccccc3C2=O)CC(C)O1 (stereo unspecified)
-10%,-10%,3,-0.4%,COc1ccccc1OCC(=O)N1CCNC1=O
-48%,1%,7,-0.1%,O=C(NCCSC1CCCCC1)c1ccccc1
-10%,-11%,·,-3.6%,Cc1cc(-c2nnc(SCC(=O)Nc3cccc(F)c3)n2N)n[nH]1
·,-12%,·,?,CS(=O)(=O)c1ccc(Cl)c(NC(=O)COC(=O)c2cccc(S(=O)(=O)N3CCCC3)c2)c1
-11%,-15%,·,2.6%,CC1CCCCN1CCCNC(=O)c1ccc(NC(=O)C2=CSCCO2)cc1 (stereo unspecified)
